Source: PubChem BioAssay
TRPML1 agonist: agonists of human TRPML1 channel; TRPML1-expressing cells, Ca2+ dye fluorescence, FDSS; host cell line not named in the record; reference of the full effect not given here; 0.12% of 410,000 active; activation, % (test concentration not listed); AID 624414; Q9GZU1; in the data active = activation above about 50%; inconclusive = about 30% to 50%; inactive = below about 30%; also: 0% is about no effect; the text of the record puts the active cut at 80%
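Tet-induced TRPML1-DL cells, 1,500 per well, cultured overnight, were loaded with a no-wash Ca2+ dye for 45–90 min. Calcium fluorescence was recorded on the FDSS for 110 s after compound addition, before the EC80 agonist (4 uM 54-4) was added.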
TRPV1 potentiator: potentiators of human vanilloid receptor 1 (TRPV1); Q8NER1; TRPV1-expressing cells, Fluo-8 calcium influx, capsaicin EC20 potentiation; host cell line not named in the record; control for the full effect not named in the record; potentiation, % at 8.33 µM; 0.02% of 320,000 active; AID 540277; active means potentiation above 80%; inconclusive means 30% to 80%; inactive means below 30%; also: 0% is about no effect
Target sequence (Q8NER1 whole entry, looked up): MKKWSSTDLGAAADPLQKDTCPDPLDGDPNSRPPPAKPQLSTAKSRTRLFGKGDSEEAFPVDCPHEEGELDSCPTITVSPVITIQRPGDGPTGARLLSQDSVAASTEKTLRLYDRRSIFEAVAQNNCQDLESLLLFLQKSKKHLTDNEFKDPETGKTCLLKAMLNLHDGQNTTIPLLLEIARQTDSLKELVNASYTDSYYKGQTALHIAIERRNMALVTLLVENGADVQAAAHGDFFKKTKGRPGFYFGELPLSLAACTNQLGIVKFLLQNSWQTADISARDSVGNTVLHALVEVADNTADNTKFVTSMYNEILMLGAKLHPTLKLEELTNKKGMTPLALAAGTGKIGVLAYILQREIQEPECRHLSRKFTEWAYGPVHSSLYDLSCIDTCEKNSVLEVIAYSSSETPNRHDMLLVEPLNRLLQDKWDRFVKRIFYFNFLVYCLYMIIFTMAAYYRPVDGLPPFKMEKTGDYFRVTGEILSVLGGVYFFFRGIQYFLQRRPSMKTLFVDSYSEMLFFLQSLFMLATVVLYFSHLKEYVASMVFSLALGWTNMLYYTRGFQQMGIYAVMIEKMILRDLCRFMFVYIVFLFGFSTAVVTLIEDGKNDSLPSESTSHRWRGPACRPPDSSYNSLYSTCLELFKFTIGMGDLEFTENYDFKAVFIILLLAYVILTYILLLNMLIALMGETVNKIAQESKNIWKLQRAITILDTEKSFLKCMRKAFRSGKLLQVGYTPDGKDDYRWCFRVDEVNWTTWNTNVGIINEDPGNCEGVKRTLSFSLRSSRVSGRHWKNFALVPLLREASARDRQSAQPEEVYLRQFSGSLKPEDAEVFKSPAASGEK
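Fluo-8 calcium influx in TRPV1-expressing cells, kinetic read (ex 480/em 520 nm). Compound added and read 3 min for agonist activity, followed by capsaicin at EC20 final and 2 min further read for enhancement.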
ClpP mod: qHTS Assay for Activators of ClpP. purified B. subtilis ClpP, FRET peptide cleavage, 20 min. AID 651965, 2013. Potency, µM (series often up to 57.5 µM), inactives show at the top dose activity change, negative = active. 1.9% of 340,000 active; active = well fitted falling curve with a large enough effect; inconclusive = small, poorly fitted or top-dose-only effect; inactive = no such curve, though single readings can be large or run the other way; also: potency is read from the fitted curve at half-maximal effect; the source files actives as falling curves though it sought activators and does not explain the sign; nearly all actives have a fitted effect of over 65% in size; many hits overshoot -100%
Target sequence (P80244 whole entry, looked up): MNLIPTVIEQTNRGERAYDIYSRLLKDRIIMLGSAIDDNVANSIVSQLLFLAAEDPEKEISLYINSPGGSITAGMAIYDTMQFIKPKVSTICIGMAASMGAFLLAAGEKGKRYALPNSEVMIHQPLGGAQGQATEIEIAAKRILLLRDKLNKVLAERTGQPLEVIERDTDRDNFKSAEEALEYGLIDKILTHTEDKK
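ClpP 10 microg/mL final, pH 8 Tris/KCl buffer with BSA, glycerol, Tween-20; compound pinned in; FRET-FV substrate; RT 20 min; Ex320/Em430; ΔFRET vs ADEP 5.8 microM, DMSO, no enzyme.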
PINK1 modulator: PINK1 expression modulation; PINK1 immunofluorescence, high-content cytometry, 24 h; Potency, µM (series often up to 76.6 µM), without a hit: top-dose activation (PINK1 increase), most hits filed as activators; 0.2% of 410,000 active; active = well fitted activation curve with a large enough effect; inconclusive = small, poorly fitted or top-dose-only effect; inactive = flat fitted curve, though single readings scatter; cell line not stated here;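 also: potency is read from the fitted curve at half-maximal effect; % of control where 0% means no effect; nearly all actives have a fitted effect of over 65% in size; a mitochondrial uncoupler was the plate control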
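PINK1 protein, normally rapidly degraded, was detected by immunofluorescence after 24 hour compound treatment of a stable cell line. Titration data (5 concentrations) came from laser-scanning cytometry, with CCCP-treated wells as controls.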
TRPML1 blocker: human mucolipin-1 channel inhibition | Q9GZU1 | TRPML1-inducible cells, Ca2+ dye fluorescence, FDSS; stronger effect = lower value; inhibition of EC80 agonist-evoked calcium signal | activity change, negative = inhibition, % (no concentration beside the values) | 0.02% of 390,000 active | AID 624415; in the data active means activity change below about -50%; inconclusive means about -30% to -50%; inactive means above about -30%;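 also: stimulus is agonist 54-4 at its EC80 concentration; % is scaled to controls: 0 for no effect and ±100 for the full control effect; compound concentration not given in the record; the text of the record puts the active cut at -80%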
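TRPML1-DL cells, Tet-induced overnight (~16 h, 37 °C) at 1,500 cells/well, were loaded with Ca8 no-wash dye plus quencher for 45-90 min at room temperature. Compounds were pinned during FDSS kinetic reading; agonist 54-4 at EC80 (4 uM final) then added.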
Menin-MLL FL inh: displaces fluorescein MLL peptide from human menin; Fluorescence polarization, fluorescein-MLL peptide displacement from menin; FP activity change, % at 61.4 µM; 290,000 tested, under 10 active; AID 1766; inconclusive = falling polarisation curve, or a change in total fluorescence; inactive = total fluorescence flat and polarisation flat or rising; no compound was filed as active; the % refers to the polarisation; negative = inhibition;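 also: % of control where 0% means no effect; inhibitors lower the polarisation; unlabelled MLL peptide was the positive control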
Sfp PPTase inh: blocks B. subtilis Sfp PPTase activity. Biochemical Sfp PPTase activity, qHTS. Potency, µM, without a hit: max response, negative = inhibition, actives largely listed as inhibitors. 3.5% of 310,000 active. AID 1490; active = well fitted inhibition curve with a large enough effect; inconclusive = small, poorly fitted or top-dose-only effect, or another doubt; inactive = no such curve, though single readings can be large or run the other way;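 also: the enzyme is Sfp with the accession as filed and its product quenches rhodamine fluorescence; potency is read from the fitted curve at half-maximal effect; 0% = enzyme reaction without inhibitor and -100% = no enzyme wells; top concentration of the series not given in the record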
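Fluorescence-quenching assay: 15 nM Sfp-PPTase preincubated 15 min at room temperature with compound, then 5 uM rhodamine-CoA and 12.5 uM BHQ-2-labelled YbbR peptide added. Fluorescence (ex 525/em 598 nm) read at start and after 30 min; difference gives rate.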
An asterisk follows results filed as active; ? = inconclusive; nt = no result given; & = joins results of further samples; ! = repeats disagree; [ ] = dose if it differs, or a comment.

entry	Compound	TRPML1 agonist	TRPV1 potentiator	ClpP mod	PINK1 modulator	TRPML1 blocker	Menin-MLL FL inh	Sfp PPTase inh
1	O=C(NC1=NCCS1)c1ccc(Cl)c(S(=O)(=O)N2CCc3ccccc32)c1	-0.5	-2	0.4%	0.3%	2	-1.3	0%
2	CN(C)c1ccc(NC(=O)C(=O)C2C(=O)Nc3ccccc32)cc1 (configuration not stated)	0.1	nt	-3.2%	0.3%	5	3.0	-11%
3	C[C@@H]1CN([C@H](C)CO)C(=O)CCCn2nncc2CO[C@@H]1CN(C)C(=O)c1cc(-c2ccccc2)on1	-0.2	nt	-2.8%	2.0%	0	nt	nt
4	CSc1ccc(Cl)c(C(=O)OCC(=O)N2CC(C)OC(C)C2)c1 (configuration not stated)	-1.1	13	-6.7%	2.8%	-3	1.0	3%
5	NC(=O)CCc1nc2cc(C(F)(F)F)ccc2n(Cc2ccccc2)c1=O	5.3	1	nt	0.8%	34	4.2	-1%
6	CCOc1ccc(C(=O)N/N=C/c2c(C)[nH]c(=O)[nH]c2=O)cc1	nt	26	nt	nt	nt	3.7	19%
7	COCc1ccc(C(=O)NCC2(N3CCCCC3)CCCCC2)cc1	-0.5	1	nt	-0.8%	12	-0.2	-23%
8	O=C(O)Cc1c(C(=O)O)[nH]c2ccc(C(=O)O)cc12	-0.5	-1	nt	1.9%	-7	2.5	19%
9	COc1ccc(C(=O)Nc2ccccn2)cc1	1.6	1	-11%	0.6%	3	-3.0	9%
10	CCn1c(C)nc2cc(-c3nc4n(n3)Cc3ccccc3-4)ccc21	-1.1	-5	?	1.6%	-16	0.7	27%
11	CS(=O)(=O)N(CCc1ccccc1)CC(=O)N1CCN(c2ccccc2)CC1	0.0	10	0.8%	-0.6%	2	3.6	5%
12	Cc1ccc(O)c(-c2cc(C(=O)NCc3ccncc3)[nH]n2)c1	-0.1	-24	1.6%	-2.9%	-4	0.0	1%
13	CCOc1ccc(S(=O)(=O)NCc2cccnc2)cc1NC(=O)c1ccccc1F	-0.7	4	-2.7%	6.5%	-2	3.4	14%
14	COCCCNc1nc2ccccc2nc1NS(=O)(=O)c1ccc(C)c(C)c1	-0.3	-9	nt	-0.5%	2	4.4	20%
15	COc1ccccc1N1CCN(c2ncnc3c2cnn3-c2cccc(Cl)c2)CC1	-0.3	nt	-1.8%	-0.5%	38	nt	nt
16	COC(=O)C(Cc1ccccc1)NC(=O)CCNC(=O)c1ccco1 (configuration not stated)	0.0	-7	nt	0.3%	34	-0.2	11%
17	CCOC(=O)C1C(=O)CC(C)(O)C(C(=O)OCC)C1c1ccc(C)s1 (configuration not stated)	-0.5	-2	-1.5%	-0.8%	-4	-2.2	?
18	Cc1cc2c(=Cc3ccc(N(C)C)cc3)c3ccccc3n2[n+]1C	0.5	nt	-6.9%	?	13	nt	nt
19	FC(F)(F)c1cccc(Oc2ccc3c(C(F)(F)F)cc(C(F)(F)F)nc3n2)c1	0.2	nt	-0.9%	5.0%	5	-2.5	9%
20	COc1cc(OC)c(C(=O)Nc2ccc(N(C)C)cc2)cc1OC	-0.8	-12	-0.9%	1.5%	-3	2.9	-19%
21	Cc1ccc(OCC(=O)Nc2cccc(OCc3cc(=O)n4ccccc4n3)c2)cc1C	0.3	nt	-21%	1.5%	18	nt	nt
22	Cc1c(C(=O)Oc2cc(N)n(S(C)(=O)=O)n2)cccc1[N+](=O)[O-]	-0.5	-3	nt	-1.4%	-1	-0.6	-27%
23	Cc1c(NC(=O)Cc2cccs2)cccc1[N+](=O)[O-]	-0.3	-2	nt	-1.3%	6	2.4	-2%
24	O/N=C\c1ccccc1Oc1ccc(F)cc1	-1.3	6	-0.3%	8.9%	-9	-1.5	8%
25	CC(C)Oc1c(N2CCOCC2)c(=O)c1=O	4.5	-8	-0.3%	0.0%	7	3.2	24%
26	Cc1cc(OCC(=O)NCCN2CCOCC2)ccc1Br	-0.5	-12	0.3%	0.5%	7	0.9	19%
27	O=S(=O)(Nc1nc2ccccc2nc1NCc1ccco1)c1ccccc1	-0.9	1	?	-1.2%	24	1.2	24%
28	O=C(NCCCN1CCOCC1)c1c(F)cccc1F	0.5	2	0.0%	13%[38.3 µM]	-15	-0.6	13%
29	CC1CCC(NC(=O)CSc2nncs2)CC1 (configuration not stated)	2.3	-6	nt	0.7%	2	nt	nt
30	CCOC(=O)c1c(NC(=O)c2ccc(Br)o2)sc(C)c1CC	-0.7	-8	?	4.3%	34	4.0	?
31	CC1CN(CC(=O)NC(C)c2ccccc2)CC(C)O1 (configuration not stated)	0.1	0	-2.0%	-1.4%	2	-4.7	4%
32	Cc1cccc(C)c1OCC(=O)N/N=C/C=C/c1ccco1	1.8	6	0.8%	7.0%	37	-0.4	-21%
33	COc1ccc(C(C)NC(=O)CN(c2cc(OC)ccc2OC)S(=O)(=O)c2ccccc2)cc1 (configuration not stated)	0.2	nt	-0.9%	1.8%	-5	nt	nt
34	Cc1ccc(NC(=O)CN2C(=O)COc3ccc(S(=O)(=O)NC4CCCC4)cc32)cc1N(C)C	1.2	nt	-3.6%	5.0%	9	nt	nt
35	C[C@@](Cc1ccc(O)c(O)c1)(NN)C(=O)O	0.9	5	-1.2%	3.0%	-4	0.7&-2.8&0.9&10	20µM*!
36	Cc1ccc(NC(=O)CSc2nc3nc(C)c(Br)cc3[nH]2)cc1F	1.7	23	-2.8%	6.1%	-4	-0.2	11%
37	CN1/C(=C\C=C2/SC(=S)NC2=O)C(C)(C)c2ccccc21	85*	-1	-2.3%	?	-2	?	?
38	COC(=O)c1sccc1NC(=O)Cc1ccc(Br)cc1	1.4	2	-5.2%	2.9%	11	4.2	-9%
39	Cc1ccc2ncc3c(-c4ccc(F)cc4)nn(CC(=O)Nc4ccccc4C)c3c2c1	0.3	nt	0.9%	0.4%	-1	nt	nt
40	CCCCOC(=O)CSc1nnc(-c2cc(OC)c(OC)c(OC)c2)o1	1.3	-5	-3.4%	3.8%[38.3 µM]	-10	4.4	10%
41	CN(C)c1ccc(/C=C/C(=O)c2ccccc2O)cc1	4.2	7	1.6%	6.8%	20	?	-13%
42	Cn1c(=O)[nH]c(=O)c2c1nc(N1CCCC1)n2CCCSc1nnnn1-c1ccccc1	0.2	17	0.6%	-0.7%	-11	11	0%
43	Cn1c(=O)c2c(SCC(=O)NC3CCCC3)nc(CC(C)(C)C)nc2n(C)c1=O	-0.2	2	0.9%	3.2%	2	nt	9%
44	O=C(Nc1ccc(Br)cn1)c1ccc(Br)s1	1.8	11	nt	11%	26	4.0	0%
45	COc1ccc(N2CC(C(=O)N3CCN(S(=O)(=O)c4ccc(F)c(F)c4)CC3)CC2=O)c(OC)c1 (configuration not stated)	4.0	nt	0.2%	-0.8%	4	nt	nt
46	O=C(Cc1ccc(Br)cc1)Nc1ccc(Cl)cc1	0.6	-10	0.6%	9.2%	3	0.1	5%
47	O=C(Nc1ccccc1)N(Cc1cccs1)c1ccc(Cl)cc1	0.7	nt	1.8%	0.7%	-9	nt	nt
48	COc1ccccc1C(=O)Nc1ccc(S(=O)(=O)N2CCc3ccccc32)cc1	2.7	8	0.7%	4.3%[38.3 µM]	-9	2.0	16%
49	O=C(N/N=C/c1cc([N+](=O)[O-])ccc1O)c1ccncc1	-0.1	21	1.5%	1.7%	0	5.1	4%
50	CN(CC(=O)Nc1cccnc1)S(=O)(=O)c1ccccc1	0.6	8	-1.8%	-1.1%[38.3 µM]	28	6.9	-7%
51	CCCCCCN1C[C@H](n2cc(C3CC3)nn2)[C@@H](O)C[C@@H]1c1ccccc1	3.0	nt	-3.7%	-3.0%	72	nt	nt
52	CC(=O)c1sc(NC(=O)C=C(C)C)nc1C	-0.1	?	-3.7%	1.0%	24	7.9	-3%
53	O=C(CCC(=O)OCC(F)(F)C(F)F)NCc1ccccc1	0.6	-4	0.4%	7.3%[38.3 µM]	12	1.0	-1%
54	CCn1nc(NC(=O)COC)c2cc3cc(C)ccc3nc21	1.0	-13	-14%	0.9%	-15	2.9	-8%
55	Cc1ccc(N(Cc2ccc([N+](=O)[O-])cc2)C(=O)c2ccco2)cc1C	1.7	-3	0.9%	0.8%	20	0.9	4%
56	COc1cc(C(=O)N2CCCCC2c2cc(C(=O)NCc3cccnc3)no2)cc(OC)c1C (configuration not stated)	-1.1	nt	0.1%	7.2%	nt	nt	nt
57	COC(=O)c1ccc2nc(NC(=O)C(C)C)sc2c1	0.5	26	nt	7.2%	-3	3.7	11%
58	CCc1ccc(NS(=O)(=O)c2ccc3c(c2)oc(=O)n3C)cc1	nt	-10	-0.9%	0.0%	nt	1.0	-5%
59	Cc1ccc(N(CC(=O)NN=C2CCN(C)CC2)S(=O)(=O)c2ccccc2)c(C)c1	-0.2	-8	0.3%	4.1%	-1	-0.9	-10%
60	O=C(Nc1cc(F)cc(F)c1)c1ccc(NCCc2ccccc2)c([N+](=O)[O-])c1	-0.3	7	1.8%	?	8	0.6	9%
61	COc1ccccc1C(=O)Oc1ccc2c(c1)O/C(=C\c1ccncc1)C2=O	25	6	-1.7%	4.8%	-9	?	6%
62	CC(=O)c1ccc2c3c(ccc([N+](=O)[O-])c13)CC2	-0.4	nt	-0.4%	0.7%	-12	nt	nt
